Compound activity as filed in PubChem.
Mtb H37Rv: Confirmatory growth inhibition assay against Mycobacterium tuberculosis H37Rv, potency (AID 1949) | one-dose inhibition, % at 10 µg/mL; IC50 in µg/mL for titrated hits | most inactive calls were filed without a number and no value below 0 was filed | hit rate 1.6% among 100,000;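 active = confirmed in a dose series; inconclusive = about 50% or more but not retested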;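 note: bacteria grown 7 days with compound before Alamar blue readout; 0% = untreated bacteria and 100% = reference antibiotic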
Active calls of the source: *; i = inactive; ? = inconclusive.

SMILES | Mtb H37Rv
CNC(=O)CN(c1cc(Cl)ccc1C)S(C)(=O)=O | i
O=S(=O)(c1cccc2cccnc12)N(CCO)CCO | i
O=C(Nc1ccccc1OC(F)F)c1ccccc1[N+](=O)[O-] | i
Cc1ccc(C2C(C(=O)c3cccs3)=C(O)C(=O)N2c2nncs2)cc1 (stereo not drawn) | i
O=C(COc1ccc(Cl)cc1Cl)NCCc1cccc(Cl)c1 | 6%
Cc1nc(SCc2ccc(F)cc2)n[nH]1 | i
C/C=C/C=C/c1nc2ccccc2c(=O)o1 | i
CCOC(=O)C1=C(C)NC2=C(C(=O)CC(c3ccco3)C2)C1c1cccc(C(F)(F)F)c1 (stereo not drawn) | i
C=C(C)Cn1cnc2cc(C)c(C)cc21 | i
COC(=O)c1coc(-c2ccc(OC)cc2)c1C(=O)OC | 1%
COc1ccccc1N1CCN(c2ncnc3c2cnn3-c2cccc(C)c2)CC1 | i
COc1ccc(NC(=S)NCCCN2CCCC2=O)c(OC)c1 | i
CCOc1nc(C)ccc1-c1noc(-c2cccnc2)n1 | i
Cc1cccc(/C(N)=N/OC(=O)CCCOc2ccc(Cl)cc2Cl)c1 | i
COc1ccc([N+](=O)[O-])cc1NC(=O)C(C)c1ccccc1 (stereo not drawn) | i
C=CCc1cc(OC)ccc1OCCN1CCCCC1 | i
CCOC(=O)c1ccc(N2C(=O)CC(N3CCc4ccccc4C3)C2=O)cc1 (stereo not drawn) | i
N#Cc1c(C(F)(F)F)cc(-c2ccncc2)nc1SCCN1CCCCCC1 | i
CCc1ccccc1NC(=O)c1cccc(OC)c1OC | 0%
O=S(=O)(O)c1nnc2n(Cc3ccccc3)c3ccccc3n12 | i

The list goes on, overlapping the part above by 7 compounds.
SMILES | Mtb H37Rv
Cc1cccc(/C(N)=N/OC(=O)CCCOc2ccc(Cl)cc2Cl)c1 | i
COc1ccc([N+](=O)[O-])cc1NC(=O)C(C)c1ccccc1 (stereo not drawn) | i
C=CCc1cc(OC)ccc1OCCN1CCCCC1 | i
CCOC(=O)c1ccc(N2C(=O)CC(N3CCc4ccccc4C3)C2=O)cc1 (stereo not drawn) | i
N#Cc1c(C(F)(F)F)cc(-c2ccncc2)nc1SCCN1CCCCCC1 | i
CCc1ccccc1NC(=O)c1cccc(OC)c1OC | 0%
O=S(=O)(O)c1nnc2n(Cc3ccccc3)c3ccccc3n12 | i
O=C(CSc1ccccc1)Nc1ccccc1C(=O)N1CCCC1 | 2%
COC(=O)c1ccccc1NC(=O)c1cnn2c(C(F)(F)F)cc(-c3ccccc3OC)nc12 | i
COC(=O)C1CN(c2ccc(OC)cc2)N=C1C(C)=O (stereo not drawn) | i
CCNc1nc(OCCO)nc(N(C)C)n1 | 3%
CC1(C)CC(=O)c2cc(C(=O)NCc3ccco3)c(=O)n(-c3ccccc3)c2C1 | i
CC1(C)CC(NC(=O)C(=O)NCc2ccc(Cl)cc2)CC(C)(C)N1 | i
O=C(CSc1nc2cc(Cl)ccc2o1)N1CCOCC1 | i
CCOC(=O)c1[nH]c(C)c(/C(O)=C2\C(=O)C(=O)N(CCN3CCOCC3)C2c2cccc(OC)c2OC)c1C (stereo not drawn) | i
CC(=O)NC1CCC(c2ccccc2)CC1 (stereo not drawn) | i
COC(=O)c1ccccc1NC(=O)Nc1nc(C)cc(C)n1 | i
CCn1c(SCC(=O)Nc2cccc(OC)c2)nnc1C(C)NC(=O)c1ccccc1Cl (stereo not drawn) | i
O=C(CS(=O)(=O)c1ccccc1)c1ccc2c(c1)OCCO2 | i
CCCCC1CC1C(=O)Nc1ncc2c(n1)CC(C)(C)CC2=O (stereo not drawn) | 2%
C=CCc1ccccc1OCCOc1ccccc1OC | 11%
C#CCOC(=O)Nc1ccc(OC)cc1 | i
O=C(Nc1ccc(SC(F)F)cc1)c1ccc2nccnc2c1 | i
Cc1ccc(-c2csc(N3C(=O)CN=C3SCc3ccc(Cl)cc3)n2)cc1 | i
CC(=O)Nc1nnc(SCc2ccccc2Cl)s1 | i
Cc1cc(Cl)ccc1OCC(=O)Nc1ccc2c3c(cccc13)CC2 | 3%
CS(=O)(=O)Nc1ccc(C(=O)Nc2ccc(OCc3ccccc3)cc2)cc1 | i
O=C(Nc1nc2ccccc2s1)c1cccc(N2C(=O)CCC2=O)c1 | i
COc1cccc(C(=O)Oc2ccc3c(=O)c(-c4ccccc4)coc3c2)c1 | i
OCc1c(OCc2cccc(F)c2)ccc2ccccc12 | 23%
Cc1cc(C(F)(F)F)n2nc(C(=O)O)cc2n1 | i
O=C(O)C1CC(=O)N(CCOc2ccccc2)C1 (stereo not drawn) | 1%
Cc1cc([N+](=O)[O-])ccc1N1CCN(S(=O)(=O)c2ccccc2)CC1 | 11%
CCN(CC)CCCN1C(=O)C(O)=C(C(=O)c2ccc(C)o2)C1c1ccco1 (stereo not drawn) | i
Cc1ccc(OC(C)C(=O)Oc2ccc(Br)cc2)cc1C (stereo not drawn) | 0%
S=C(NCCc1ccccc1)NCCc1ccc(Cl)cc1 | 9.9µg/mL*
COc1cc(C)c(C)cc1S(=O)(=O)N1CCN(c2ccc(C)c(Cl)c2)CC1 | i
Cc1ccc(-c2nc(SCC(=O)c3ccccc3)n[nH]2)cc1 | i
N#CC(c1ccc(OCc2ccccc2)cc1)N(C(=O)Cc1ccccc1)c1ccccc1 (stereo not drawn) | 5%
COc1ccc(CCn2c(C)c3c(C)nnc(C)c3c2C)cc1OC | i
CC(=O)Nc1ccc(Nc2nc(-c3ccccc3)nc3ccccc23)cc1 | i
O=C(Nc1ccc(S(=O)(=O)N2CCc3ccccc32)cc1)c1ccc(Br)o1 | i
O=S(=O)(c1cccc2cccnc12)N1CCN(c2ccc(F)cc2)CC1 | 3%
O=C(Cn1cnc2scc(-c3ccccc3)c2c1=O)Nc1ccc(F)cc1 | i
Cn1c(=O)c2c(nc(NCCO)n2C)n(C)c1=O | i
O=C(NC(=S)Nc1ccc2c(c1)Cc1ccccc1-2)c1ccc(Br)cc1 | i
COc1ccc(Cc2nnc(SCC(=O)Nc3ccc(Cl)cc3Cl)n2C)cc1 | i

Seven entries out of the list, ordered by heavy-atom count, descending.
SMILES | Mtb H37Rv
COc1cccc(C(=O)Oc2ccc3c(=O)c(-c4ccccc4)coc3c2)c1 | i
CC(=O)Nc1ccc(Nc2nc(-c3ccccc3)nc3ccccc23)cc1 | i
O=C(NC(=S)Nc1ccc2c(c1)Cc1ccccc1-2)c1ccc(Br)cc1 | i
O=C(Nc1nc2ccccc2s1)c1cccc(N2C(=O)CCC2=O)c1 | i
Cc1ccc(-c2nc(SCC(=O)c3ccccc3)n[nH]2)cc1 | i
Cc1ccc(OC(C)C(=O)Oc2ccc(Br)cc2)cc1C (stereo not drawn) | 0%
O=C(O)C1CC(=O)N(CCOc2ccccc2)C1 (stereo not drawn) | 1%

Following part.
SMILES | Mtb H37Rv
O=S(=O)(c1ccc(-c2csc(-c3cccnc3)n2)cc1)N1CCC(Cc2ccccc2)CC1 | 6%
CCCCOc1ccc(C(=O)NCCC(=O)O)cc1 | i
COc1ccc(NC(=O)NC2CCCCC2)c(OC)c1 | i
O=C(Nc1ccncc1)c1cc(Br)ccc1Cl | i
CCc1ccccc1NC(=O)CN(c1ccc(OC)c(OC)c1)S(C)(=O)=O | i
O=C(Nc1cccc(C(=O)O)c1)/C(=C\c1ccco1)NC(=O)c1ccccc1Cl | i
Cn1c(CCNC(=O)c2ccc(Cl)c(Cl)c2)nnc1SCCC(=O)Nc1ccccc1 | i
C/C=C/c1ccc(OCCOCCN2CC(C)OC(C)C2)c(OC)c1 (stereo not drawn) | i
CC(C)N1CCN(Cc2cc(Br)ccc2O)CC1 | i
CC(Oc1cccc(Cl)c1)C(=O)N1CCN(C)CC1 (stereo not drawn) | i
O=C(O)c1ccc(C2CC2(Cl)Cl)cc1 (stereo not drawn) | i
Cc1c(Cl)cccc1NC(=S)NC(=O)CC(C)(C)C | 10%
Cc1cc(OCCOCCN(C)C)cc(C(C)C)c1 | 2%
Cc1cc(OCC(=O)Nc2ccncc2)cc(C)c1Br | ?
Cn1c(SCC(=O)c2ccc(Br)cc2)nnc1-c1ccccc1F | i
CC(C)(C)c1ccc(C(=O)N2CCN(c3ccc([N+](=O)[O-])cc3C(F)(F)F)CC2)cc1 | i
COC(=O)c1ccc(Cl)c(NC(=O)CN(c2ccccc2)S(=O)(=O)c2ccc(OC)cc2)c1 | i
COc1ccc(N2CCN(C(=O)COc3cccc(C)c3C)CC2)cc1 | i
Cc1sc2ncn(C(C)C(=O)OCc3ccccc3)c(=O)c2c1C (stereo not drawn) | ?
Cc1cc(C(=O)Nc2ccc(Br)c(C)n2)ccc1[N+](=O)[O-] | i
O=C1Nc2ccc(Br)cc2C1Cc1ccco1 (stereo not drawn) | i
Cc1cnc(NC(=O)CSc2ccc(Cl)cc2)s1 | 1.7µg/mL*
O=C(CCSc1ccc(Cl)cc1)Nc1ccc(Cl)cc1 | i
COc1ccc(OC)c(NC(=O)C(C)Oc2cc(C)cc(C)c2)c1 (stereo not drawn) | 8%
Fc1cccc(Cl)c1COn1nnc2ccccc21 | 0%
CCSc1nnc(NC(=O)C2CCCCC2)s1 | i
CC(=O)c1ccc(NC(=S)N2CCN(CCO)CC2)cc1 | i
COc1ccc(NC(=S)N2CCOCC2)c(OC)c1 | i
COC(=O)C1=CN(CC2CCCO2)C=C(C(=O)OC)C1c1ccc(OC)c(Br)c1 (stereo not drawn) | i
O=C(O)CCC(=O)Nc1ccc(Oc2ccccc2-c2ccccc2)cc1 | i
Cn1c(=O)c2c(nc(OCc3ccc(Cl)cc3Cl)n2Cc2ccccc2Cl)n(C)c1=O | i
S=C(NCc1ccccn1)Nc1ccc(Cl)cc1Cl | i
CCCCc1ccc(NC(=O)c2ccc(OC)c(Cl)c2)cc1 | 2%
O=C(Nc1ccc(F)c(Cl)c1)C1CC(=O)N(C2CCCCC2)C1 (stereo not drawn) | i
CCOC(=O)c1c(C)n(CC(O)CNC(C)C)c2cc(Br)c(OC)cc12 (stereo not drawn) | i
CCOC(=O)C1=C(c2ccccc2)NC(=S)NC1c1cc(Cl)ccc1OC (stereo not drawn) | 7%
CCN(CC)CCCN1C(=O)C(=O)/C(=C(/O)c2cnn(-c3ccccc3)c2C)C1c1ccncc1 (stereo not drawn) | i
Fc1ccc(C2CC(c3ccco3)n3ncnc3N2)cc1 (stereo not drawn) | i
Cn1c(=O)c2ncn(CC(=O)Nc3ccc(Cl)c(-c4nc5ccccc5s4)c3)c2n(C)c1=O | i
CCc1c(C)sc(NC(=O)OC)c1C(=O)N1CCCCC1 | i
CCCc1cc(=O)[nH]c(Nc2nc(C)c3ccc(C)cc3n2)n1 | 36%
Cc1ccc(C2=CC(c3cccc([N+](=O)[O-])c3)n3nnnc3N2)cc1C (stereo not drawn) | 12µg/mL*
COc1cc(NC(=O)Cc2ccc([N+](=O)[O-])cc2)c(C(=O)O)cc1OC | 3%
CCc1cc2c(=O)c(-c3nc4ccccc4n3C)coc2c(CN2CCCCC2C)c1O (stereo not drawn) | i
Nc1ccccc1C(=O)Nc1c(Cl)cccc1Cl | i
C=CCn1c(=O)c2c3c(sc2n2c(Nc4ccc(OC)cc4)nnc12)CCCC3 | 1%
CC(=O)c1sc(N2C(=O)C(=O)/C(=C(/O)c3cc(C)ccc3C)C2c2ccc(O)cc2)nc1C (stereo not drawn) | i
O=C(COc1ccc(C2CCCCC2)cc1)Nc1ccc(-c2nc3ncccc3o2)cc1 | 1%
COc1cc(C(=S)N2CCCC2)ccc1OCC(=O)NCc1ccccc1 | i
CS(=O)(=O)N(CCc1ccccc1)CC(N)=O | i
Cc1ccc(S(=O)(=O)/N=C(/Nc2ccc(C)c(Cl)c2)Nc2nc(C)cc(C)n2)cc1 | 2%
O=C(CS(=O)(=O)Cc1ccccc1)Nc1ccccc1C(F)(F)F | i
C=CCNC(=S)Nc1ccccc1C | 1%
COc1c(F)c(F)c(C(=O)Nc2cc(C(F)(F)F)ccc2N2CCOCC2)c(F)c1F | i
Cc1ccc2n1CCn1cc(-c3ccccc3)cc1-2 | 1%
CCOc1ccc(-c2oc3ccccc3c(=O)c2O)cc1 | 7%
CCOc1cc(C2C(C(=O)OC)=C(C)NC3=C2C(=O)CCC3)c(Cl)cc1OC (stereo not drawn) | i
CCCCC(=O)Nc1cccc(NC(=O)c2ccc(OCc3ccccc3)cc2)c1 | i
CCc1ccccc1OCC(=O)Nc1c(C)cc(C)cc1Cl | 29%
CCOC(=O)c1ccccc1NC(=O)c1ccc(N(C)S(C)(=O)=O)cc1 | i

Next section
SMILES | Mtb H37Rv
CCOC(=O)c1ccc(NC(=O)N2CCN(Cc3ccco3)CC2)cc1 | i
COc1cc(C)c(S(=O)(=O)Nc2ccccc2C)cc1C(C)C | i
CCCc1ccc(OCc2nc(-c3ccc(NC(=O)c4ccco4)cc3)no2)cc1 | 7%
CCOC(=O)c1ccc(N2C(=O)CC(NCCc3ccc(F)cc3)C2=O)cc1 (stereo not drawn) | i
Cc1cccn2cc(-c3cccc(NS(=O)(=O)c4ccc(Cl)cc4)c3)nc12 | i
C=CCNCCCOc1ccc(OCc2ccccc2)cc1 | i
Cc1ccc(-c2cc(C(=O)NC(C)C3CCCO3)c3ccccc3n2)o1 (stereo not drawn) | i
OCCN1CCN(Cc2ccc(F)c(Br)c2)CC1 | i
O=C(CSC1CC(=O)N(c2ccc(Cl)cc2)C1=O)Nc1ccc(Br)cc1 (stereo not drawn) | i
Cc1cc(NC(=O)c2sc3cc(F)ccc3c2Cl)no1 | i
Cc1ccc(Sc2nc([N+](=O)[O-])nn2C)cc1 | ?
O=c1c2cc(I)ccc2nc(/C=C/c2cccnc2)n1Cc1ccccc1 | 2%
CC(C)(C)NC(=O)c1cc2c(n(-c3ccccc3)c1=O)CCCC2=O | i

These rows are one share of the data; the hit share may differ from the screen's.
